Screening results from PubChem.
Rango release inh: inhibitors of RanGTP-induced Rango-importin beta complex dissociation; Biochemical FRET Rango-importin beta, RanGTP-induced dissociation; Potency, µM (highest dose often 46.1 µM), without a hit: at the highest dose activity change, negative = inhibition; AID 540253; hit rate 0.071% among 340,000; active means falling FRET ratio curve, often poorly fitted, with flat reads before Ran was added; inconclusive means other falling curves, or compound fluorescence or quenching; inactive means flat or rising ratio curve;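 note: potency is the fitted concentration of half-maximal effect; % of control where 0% means no effect; nearly all actives have a fitted effect of over 45% in size; -100% = wells without RanGTP and RCC1; the record marks most hits as doubtful in a second field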
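Compounds sat 5 min at room temperature with 0.1 uM Rango biosensor plus 0.25 uM importin beta, then FRET pre-read. RanGTP-RCC1 (0.6 uM Ran, 2mM GTP, 0.2 uM RCC1) added for 45 min, and the CFP/YFP post-read measured blocked complex dissociation.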
Rango complex inh: Rango-importin beta binding inhibition; Rango CFP/YFP FRET sensor + importin beta, 45 min; Potency, µM (series often up to 92.2 µM), without a hit: top-dose inhibition of complex formation; hit rate 0.031% among 340,000; AID 540263; active = rising FRET ratio curve, often small or poorly fitted; inconclusive = mostly compound fluorescence or quenching in the first reads; inactive = flat curves in all reads;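 note: potency is the fitted concentration of half-maximal effect; 0% = DMSO wells and 100% = buffer wells lacking importin beta; nearly all actives have a fitted effect of over 15% in size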
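FRET biosensor (snurportin 1 IBB flanked by EYFP and cerulean), 50 nM, with compound 5 min, then 0.125 microM importin beta in PBS, 1 mM DTT, 0.02% Tween-20, 0.1% BSA. CFP/YFP ratio read after 45 min at room temperature; pre-read flags interference.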
miR-21 FLuc: raises the signal of a miR-21 reporter; HeLa miR-21 FLuc reporter, luciferase, 48 h; Potency, µM (series often up to 38.3 µM), for the others: at the top dose reporter change, positive = more light; 340,000 tested, under 10 active; AID 2288; active = well fitted rising curve with a large enough effect; inconclusive = small, poorly fitted or top-dose-only effect; inactive = no such curve, though single readings can be large or run the other way;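 note: % of control where 0% means no effect; miR-21 action dims this reporter so a rising signal means less miR-21 action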
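HeLa cells stably expressing CMV-driven firefly luciferase with a downstream miR-21 binding sequence, endogenously expressing miR-21, were treated with titrations (up to about 40uM final) for 48 hours at 37 degree Celsius. Luciferase luminescence was read after lysis.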
GLA inh pH 4.5: blocks human alpha-galactosidase A at pH 4.5; activity change, negative = inhibition, % at 105 µM; purified enzyme, 4-MU-alpha-Gal fluorescence, pH 4.5; P06280; 230,000 tested, under 10 active; inconclusive = small, poorly fitted or top-dose-only inhibition, or a rising curve; inactive = flat fitted curve, though single readings scatter; no compound was filed as active;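 note: 0% = full activity with enzyme and -100% = basal without enzyme; dose as in the result columns while the protocol names 77 µM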
Target sequence (P06280 whole entry, looked up): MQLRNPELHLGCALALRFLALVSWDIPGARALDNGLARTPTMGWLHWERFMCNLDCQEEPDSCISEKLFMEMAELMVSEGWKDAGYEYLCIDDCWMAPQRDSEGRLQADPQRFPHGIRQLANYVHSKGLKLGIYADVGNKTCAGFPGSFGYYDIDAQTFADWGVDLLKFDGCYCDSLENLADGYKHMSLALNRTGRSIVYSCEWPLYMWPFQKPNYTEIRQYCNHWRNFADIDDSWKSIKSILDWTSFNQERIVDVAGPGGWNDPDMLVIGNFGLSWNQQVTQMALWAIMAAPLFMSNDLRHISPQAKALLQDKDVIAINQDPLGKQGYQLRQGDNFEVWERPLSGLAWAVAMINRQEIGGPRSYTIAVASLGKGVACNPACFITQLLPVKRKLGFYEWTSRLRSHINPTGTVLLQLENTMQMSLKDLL
Numbers without * were called inactive; ? = inconclusive; . = not tested or not shown; & = joins results of further samples.

Start of the data: the first five compounds (preview)
SMILES	Rango release inh	Rango complex inh	miR-21 FLuc	GLA inh pH 4.5
CCN(CC)C(=S)SCC(=O)Nc1ncc2c(n1)CCCC2=O	14%	-3.3%	-11%	1
COc1ccc(C(CNC(=O)c2ccc(Cl)s2)N2CCOCC2)cc1 (configuration not stated)	8%	-1.4%	.	.
CCCCCC(=O)NC(NC(=S)N1CCOCC1)C(Cl)(Cl)Cl (configuration not stated)	1%	-0.6%	0%	1
O=C(CCc1ccccc1)N1CCN(c2ccc(Cl)cc2)CC1	-11%	4.5%	-5%	6
O=C(COC(=O)c1ccccc1NS(=O)(=O)c1cccs1)NC1CCCCC1	-19%	1.3%	-1%	11

The list itself, from the start:
SMILES	Rango release inh	Rango complex inh	miR-21 FLuc	GLA inh pH 4.5
CCN(CC)C(=S)SCC(=O)Nc1ncc2c(n1)CCCC2=O	14%	-3.3%	-11%	1
COc1ccc(C(CNC(=O)c2ccc(Cl)s2)N2CCOCC2)cc1 (configuration not stated)	8%	-1.4%	.	.
CCCCCC(=O)NC(NC(=S)N1CCOCC1)C(Cl)(Cl)Cl (configuration not stated)	1%	-0.6%	0%	1
O=C(CCc1ccccc1)N1CCN(c2ccc(Cl)cc2)CC1	-11%	4.5%	-5%	6
O=C(COC(=O)c1ccccc1NS(=O)(=O)c1cccs1)NC1CCCCC1	-19%	1.3%	-1%	11
O=C(CCNS(=O)(=O)c1ccc(Br)cc1)NCc1ccc2c(c1)OCO2	-1%	0.4%	-1%	2
CC(=O)NC(CC(=O)OCC(=O)c1c(N)n(C)c(=O)n(C)c1=O)c1ccccc1 (configuration not stated)	2%	1.5%	0%	6
Oc1ccc2ccccc2c1N=Nc1ccc(F)cc1	16%	0.8%	-1%&1%	-3&-3
CCc1ccc(S(=O)(=O)c2cn(C)c3cc(OC)c(OC)cc3c2=O)cc1	-6%	-0.3%	4%&7%	.
CC(=O)OCC(=O)[C@@]1(O)CC[C@H]2[C@@H]3CCC4=CC(=O)CC[C@]4(C)[C@H]3[C@@H](O)C[C@@]21C	-11%&-12%	-2.4%&-1.2%	-26%	.
O=C(O)c1ccc(COc2ccccc2/C=C2\NC(=O)N(Cc3ccc(F)cc3)C2=O)cc1	?	-1.0%	-4%	1
CCC1CCCCN1S(=O)(=O)c1ccc(C(=O)Nc2nnc(-c3ccccc3Cl)o2)cc1 (configuration not stated)	-19%	-1.0%	-4%	-7
COc1cc(C(=O)Nc2nnc(C3CC3)s2)ccc1OCc1c(C)noc1C	12%	-2.6%	0%	7
Cc1ccc(S(=O)(=O)N2CCC(C(=O)N3CCC3)CC2)cc1	1%	-1.6%	-41%	.
CCC(=O)N1N=C(c2ccc(C)o2)CC1c1ccc(OC)cc1 (configuration not stated)	-14%	-0.2%	-24%	5
CCOCc1[nH]c(=S)[nH]c(=O)c1Cc1ccc(OC(C)C)cc1	5%	-3.2%	-5%	4
COC(=O)c1ccc(NC(=O)C2CC(=O)OC2c2ccccc2)cc1 (configuration not stated)	1%	-0.6%	3%	-12
COc1ccc(N=NC2C(=O)N(c3ccccc3)N=C2C)cc1 (configuration not stated)	16%	0.8%	3%	.
COc1ccc(/C(N)=N/OC(=O)c2ccc(Br)o2)cc1	-7%	?	-58%	.
CCS(=O)(=O)c1ccc(OC)c(N=Nc2ccc(O)c3ncccc23)c1	19%	-1.4%	29%	-11
CSc1nc(Cc2ccccc2)cc(=O)[nH]1	-6%	-0.5%	1%	2
O=C1OCCC1Sc1ncnc2sc3c(c12)CCC3 (configuration not stated)	-3%	-0.5%	-3%	-7
COc1ccc(C2CC(=O)Oc3cc(O)cc(O)c32)cc1 (configuration not stated)	1%	3.1%	-1%	1
CC(C)CC(=O)NC(=S)Nc1ccc(S(=O)(=O)NC(C)(C)C)cc1	-7%	-5.3%	6%	3
CC(C)(C)c1ccc(NC(=O)c2ccc3c(c2)S(=O)(=O)c2ccccc2C3=O)cc1	1%	-3.4%	.	.
CC(C)N1CC(COc2ccccc2Cl)OC1=O (configuration not stated)	0%	-2.0%	.	.
CNCCOc1nc(N2CCOCC2)nc(C)c1[N+](=O)[O-]	-19%	-1.2%	-12%	0
C=CC[C@H](CC(=O)N(CCO)Cc1ccccc1)C(=O)N[C@H](COC(=O)[C@@H](CC=C)CC(=O)OC(C)(C)C)c1ccccc1	-5%	1.2%	.	.
O=C(NC1CCCC1)C(c1ccncc1)N(C(=O)c1ccco1)c1ccccc1 (configuration not stated)	22%	5.1%	4%	.
COc1ccc(NC(=O)COC(=O)C2CC(=O)N(Cc3ccc(C)cc3)C2)cc1 (configuration not stated)	15%	-2.7%	3%	.
CCn1ccc(C(=O)Nc2ccsc2C(=O)OC)n1	0%	1.9%	-10%	.
CCN1CC2=C(OC(N)=C(C#N)C2c2cccs2)/C(=C\c2cccs2)C1 (configuration not stated)	?	?	9%	4
CC(C)n1c(O)c(N=NC(=O)Cn2ccc(C(F)(F)F)n2)c2ccccc21	1%	-0.6%	-3%	1
c1cncc(CNc2ccc3c(c2)OCO3)c1	1%	0.0%	-16%	7
O=C(N1CCOCC1)N(Cc1ccccc1)c1ccccn1	-12%	-0.1%	-2%	3
Cc1ccc(C(=O)CSc2nccn2-c2ccccc2)cc1	1%	1.9%	-47%	-6
CN(CC(=O)Nc1ccc(F)cc1)S(=O)(=O)c1ccc2c(c1)c(=O)n(C)c(=O)n2C	2%	-4.2%	5%	.
COc1ccc(C)cc1N=Nc1ccc(O)c2ncccc12	-11%	-0.3%	?	-14
CCn1cc(C(=O)N2CCCC(C(=O)c3ccc4ccccc4c3)C2)cn1 (configuration not stated)	1%	3.3%	-4%	.
COc1ccc(C2C(C#N)=C(N)OC3=C2C(=O)CC(C)C3)c(OC)c1OC (configuration not stated)	-5%	-3.4%	-1%	0
Cc1cc(=O)oc2cc(O[C@@H]3O[C@H](CO)[C@@H](O)[C@H](O)[C@H]3O)ccc12	-2%	0.1%	0%	.
Cc1sc2ncn(CC(=O)NCCCC(=O)N3CCN(Cc4ccc5c(c4)OCO5)CC3)c(=O)c2c1C	31%	2.4%	22%	-1
O=C(OCC1OC(n2ccc(=O)[nH]c2=O)C(Cl)C1O)c1ccccc1 (configuration not stated)	1%	-0.7%	0%	.
COc1ccc(-c2c(-c3cc(OC)cc(OC)c3)n(C)c3ccc(-c4cccc5[nH]ccc45)cc23)cc1	2%	-1.6%	.	.
CC(C)N(C(=O)[C@H]1C[C@H](CC(=O)NCCCn2ccnc2)C(=O)N2CCc3c([nH]c4cc(-c5ccco5)ccc34)[C@]12C)C(C)C	20%	-0.4%	.	.
O=C1NCCOC(=O)[C@H](Cc2ccc(F)cc2)C/C=C\C[C@H]1CC(=O)N(CCO)Cc1ccccc1	12%	-2.5%	.	.
COc1ccc(-c2cc(C)nc(SCc3cccc(C(=O)O)c3)n2)cc1	0%	0.0%	-8%	1
Oc1[nH]c2ccc(Br)cc2c1N=NC(=S)N1CCOCC1	-9%	0.6%	?	-10
CC1(C)CC(=O)C2=C(C1)N(c1ccccc1)C(N)=C(C#N)C2c1ccsc1 (configuration not stated)	-5%	2.7%	-1%	-4
c1coc(CSCc2cn3cccnc3n2)c1	-4%	1.5%	-18%	1
CCOC(=O)C1(CC2CC2)CCN(Cc2cnc(-c3ccc(OC)cc3)nc2)CC1	3%	1.6%	-4%	-7
COc1ccc(Cl)cc1C(=O)Nc1ccc2c(c1)OCO2	0%	2.6%	-35%	-3
COc1cccc(CNC(=O)CCN2C(=O)[C@@H]3Cc4ccccc4CN3C2=O)c1	-4%	-1.2%	0%	.
c1cncc(-c2nc(NCC3CCCO3)c3ccccc3n2)c1 (configuration not stated)	-3%	1.8%	10%	.
O=C(OCCN1CCCCC1)C1(c2ccccc2)CCCC1	0%	2.0%	1%	-5
N#Cc1cc([N+](=O)[O-])ccc1NC(=O)COC(=O)C1CCC(=O)N1 (configuration not stated)	9%	1.2%	.	.
COc1ccc(C2C(C(=O)NCc3ccccn3)c3ccccc3C(=O)N2C)cc1OC (configuration not stated)	-3%	-0.6%	-3%	-1
CCOc1ccc(-n2c([S-])c(C(=O)Nc3ccc(S(=O)(=O)N4CCOCC4)cc3)[n+]3cc(C(N)=O)ccc23)cc1	-12%	7.6%	-9%	-1
CN(Cc1ccc(Cl)c(Cl)c1)C(=O)c1ccccc1SCC(=O)N1CCCC1	2%	-3.0%	.	.
Cc1n[nH]c(=O)n1-c1ccc(C(C)C)cc1	-2%	-1.0%	-4%	-2

(more compounds)
SMILES	Rango release inh	Rango complex inh	miR-21 FLuc	GLA inh pH 4.5
CCC1Sc2ccccc2N(CC(=O)NCCC2=CCCCC2)C1=O (configuration not stated)	0%	6.3%	4%	1
CC(C)CCN1C(=O)c2ccc(C(=O)Nc3cccc(S(N)(=O)=O)c3)cc2C1=O	0%	2.0%	0%	0
CC1CCc2onc(C(=O)O)c2C1 (configuration not stated)	5%	-0.8%	-2%	3
NC(=S)N/N=C/c1ccc(-c2ccc(Cl)c(Cl)c2)o1	-1%	-2.6%	-17%	1
COc1ccc(CC(=O)NCCc2ccc(S(N)(=O)=O)cc2)cc1	0%	3.6%	-4%	1
C/C(=N\Nc1ccccc1)c1cc2ccccc2oc1=O	28%	1.0%	-19%	-1
CCn1c(SCC(=O)N2CCN(c3ccccc3)CC2)nc2c([nH]c3ccccc32)c1=O	-14%	1.9%	9%	.
O=C(CC(C(=O)N1CCc2ccccc21)n1ccnc1)NCC1CCCO1 (configuration not stated)	-2%	-1.0%	-1%	4
COc1cccc(NC(=O)CCSc2nnc3scc(-c4ccccc4)n23)c1	1%	-5.3%	-18%	-2
COc1ccc(NC(=O)c2ccc(NS(=O)(=O)c3c(C)noc3C)cc2)cc1OC	-1%	-0.3%	-19%	-5
CCOC(=O)c1c(C)n(C)c2c1cc(OC(C)=O)c1ccccc12	6%	-2.0%	0%	.
CCOc1ccc(Nc2oc(-c3ccco3)nc2C#N)cc1	-3%	-0.3%	-32%	-4
COC(=O)c1ccc2c(=O)n(CCN3CCOCC3)c(SCC(=O)C(C)(C)C)nc2c1	1%	-2.7%	-2%	-5
COc1cc(C(=O)NCCc2cc3c(OC)ccc(OC)c3[nH]c2=O)cc(OC)c1OC	0%	-2.6%	-2%	4
O=C(C(Cc1ccccc1)NS(=O)(=O)c1cccc2cccnc12)N1CCc2ccccc21 (configuration not stated)	11%	-1.3%	-1%	1

An excerpt from above in order of the miR-21 FLuc value, smallest number first.
SMILES	Rango release inh	Rango complex inh	miR-21 FLuc	GLA inh pH 4.5
COc1ccc(C2C(C#N)=C(N)OC3=C2C(=O)CC(C)C3)c(OC)c1OC (configuration not stated)	-5%	-3.4%	-1%	0
COc1cccc(CNC(=O)CCN2C(=O)[C@@H]3Cc4ccccc4CN3C2=O)c1	-4%	-1.2%	0%	.
Cc1sc2ncn(CC(=O)NCCCC(=O)N3CCN(Cc4ccc5c(c4)OCO5)CC3)c(=O)c2c1C	31%	2.4%	22%	-1
CCS(=O)(=O)c1ccc(OC)c(N=Nc2ccc(O)c3ncccc23)c1	19%	-1.4%	29%	-11

(listing goes on)
SMILES	Rango release inh	Rango complex inh	miR-21 FLuc	GLA inh pH 4.5
COc1ccc(C(C)=O)cc1COC(=O)CNC(=O)c1ccc(F)cc1	0%	-0.3%	-1%	-6
C=CCn1c(NC(=O)c2ccc(Br)o2)c(S(=O)(=O)c2ccccc2)c2nc3ccccc3nc21	?	?	-5%	5
O=C(Nc1ccc2c(c1)OCO2)Oc1ccccc1	-7%	-3.5%	-45%	0
Cc1cccc(C(C)(C)C)c1OCCN1CCCC1	20%	3.2%	0%	7
CC(=O)c1ccc(OC(C)C)c(CSC(=N)N)c1	10%	1.5%	-1%	2
CC(=O)Nc1ccc(S(=O)(=O)NCc2nc(-c3ccccc3)no2)cc1	23%	-1.4%	0%	.
CCc1cccc(NS(=O)(=O)c2cccc3cccnc23)c1	27%	2.4%	-5%	.
Nc1ccc2c(c1)Cc1cc(Cl)c(Cl)cc1-2	0%	-1.8%	.	.
COc1ccccc1C(=O)NCCC(=O)N1CCN(S(=O)(=O)c2ccc(Cl)cc2)CC1	-3%	0.1%	.	.
COc1cc(CC(=O)Nc2ccc(S(=O)(=O)Nc3ncccn3)cc2)cc(OC)c1OC	-9%	2.0%	-2%	4
O=C(CSc1nncs1)NC(=O)NCc1ccco1	-4%	-2.9%	0%	-21

This is a subset; rates above refer to the full screens.
